KCNQ2 inh = KCNQ2 potassium channel inhibitors, primary screen, cell-based, CHO-K1, FluxOR thallium flux, B-score (AID 2156). O88943. 20 min; active compounds read low; only compounds with negative scores are shown here; some inactives read as strong as hits. B-score at 10 µM. 310,000 compounds, 1.1% hits;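 active = fluorescence ratio B-score at most minus 3 library SDs, with starting brightness B-score within 2 library SDs, cut at about -5.5 in these data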
Target sequence (O88943 whole entry, looked up): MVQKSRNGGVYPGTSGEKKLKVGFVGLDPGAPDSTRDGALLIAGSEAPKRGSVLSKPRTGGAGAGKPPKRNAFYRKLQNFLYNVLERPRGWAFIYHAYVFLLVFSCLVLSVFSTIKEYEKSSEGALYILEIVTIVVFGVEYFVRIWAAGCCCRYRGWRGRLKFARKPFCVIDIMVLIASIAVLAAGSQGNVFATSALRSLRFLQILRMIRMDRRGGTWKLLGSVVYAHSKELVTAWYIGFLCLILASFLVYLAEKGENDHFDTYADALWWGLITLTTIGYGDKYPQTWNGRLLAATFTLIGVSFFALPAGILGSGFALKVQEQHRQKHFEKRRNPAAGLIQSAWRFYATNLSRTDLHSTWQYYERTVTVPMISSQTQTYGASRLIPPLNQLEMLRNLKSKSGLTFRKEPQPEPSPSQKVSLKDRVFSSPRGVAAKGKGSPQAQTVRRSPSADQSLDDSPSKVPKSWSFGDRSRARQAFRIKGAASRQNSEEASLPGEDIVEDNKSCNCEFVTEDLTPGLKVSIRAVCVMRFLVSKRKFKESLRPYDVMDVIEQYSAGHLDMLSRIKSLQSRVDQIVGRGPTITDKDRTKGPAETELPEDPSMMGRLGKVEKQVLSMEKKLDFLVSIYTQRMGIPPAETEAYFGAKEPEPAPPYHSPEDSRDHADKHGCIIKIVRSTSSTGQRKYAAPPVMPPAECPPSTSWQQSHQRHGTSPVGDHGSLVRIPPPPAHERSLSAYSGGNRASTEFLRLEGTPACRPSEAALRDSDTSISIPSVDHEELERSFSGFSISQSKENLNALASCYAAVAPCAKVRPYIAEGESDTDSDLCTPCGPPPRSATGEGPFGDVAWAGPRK
KCNQ2 inh baseline = recorded beside KCNQ2 inh, whose call it bears; B-score; measured here: initial fluorescence intensity artifact check;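 brightness before thallium and not channel activity; 0 = typical well and far values either way flag optical interference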
Starred values were filed as active, the others as inactive; i = inactive.

molecule,KCNQ2 inh,KCNQ2 inh baseline
COc1ccc(CCNC(=O)CSc2nc(C)cc(C)n2)cc1OC,i,-1.4
Cc1ccc(Oc2cc(-n3nc(C)cc3C)ncn2)cc1,i,0.28
Cc1c(C(=O)Nc2ccc(F)cc2)nnn1-c1cccc(C(F)(F)F)c1,i,1.2
O=C(Nc1cc(C(F)(F)F)ccc1Cl)C(Sc1ccccn1)c1ccccc1 (stereo unspecified),i,0.51
O=S(=O)(Nc1ccccc1N1CCOCC1)c1ccc(Cl)s1,i,-1.1
COc1ccccc1-c1nnc(NC(=O)c2ccc3ncsc3c2)o1,i,0.26
C/C(O)=C(/N=O)C(=O)Nc1ccccc1,i,5.2
COc1cc(C(=O)NC(=S)NNC(=O)c2ccc3c(c2)OCO3)cc(OC)c1OC,i,0.79

Further entries follow:
molecule,KCNQ2 inh,KCNQ2 inh baseline
c1ccc(CSC2=NCCCN2)cc1,i,-0.7
COc1ccc(CCNC(=O)Cn2nnc(-c3ccc(N(C)C)cc3)n2)cc1OC,i,0.97
COC(=O)CN1CCN(C(=O)c2ccc(F)cc2)c2ccccc2C1,i,0.5
CC(=O)C(=Nc1cccc(Cl)c1)NNc1ccccc1C,i,0.92
Cc1cc(NC(=O)C(C)C)ncc1NC(=O)Cc1ccccc1,i,0.33
COc1ccc(OCc2nc3ccccc3n2C(C)C)cc1,i,-1.2
COC(=O)c1c(NC(=O)CN2CCN(Cc3ccc4c(c3)OCO4)CC2)sc(C)c1C,i,-2.7
Cc1nn(C)c(C)c1S(=O)(=O)N(CC(=O)NCCCN1CC(C)CC(C)C1)c1ccc(C(C)C)cc1 (stereo unspecified),i,0.62

Remaining list, next part:
molecule,KCNQ2 inh,KCNQ2 inh baseline
O=C(NC(=O)N1CCCCC1)c1ccc(Cl)cc1,i,0.58
Clc1ccc(Nc2nc(N3CCOCC3)nc(N3CCOCC3)n2)cc1Cl,i,1.4
COc1ccc(C2c3[nH]c4ccccc4c3C[C@H]3C(=O)N(CCCO)CC(=O)N23)c(OC)c1 (stereo partly specified),i,2.6
COc1ccc(-c2nnn(CC(=O)N(CC3CCCO3)C(C(=O)NC(C)(C)C)c3ccco3)n2)cc1OC (stereo unspecified),i,0.04
CN(C)c1ccc(S(=O)(=O)N(C)C)cc1NC(=O)Cc1cccc2ccccc12,-7.5*,0.88*
Oc1ccc2ccccc2c1C=Nc1ccccc1Br,i,1.3
CCCN(CC(=O)Nc1ccccc1C)C(=O)c1ccc(-c2ccccc2)cc1,i,2
Cc1nn(Cc2noc(C(=O)NCCCn3ccnc3)n2)c(C)c1Br,i,2.5

Next section; it opens with the 4 that closed the last part.
molecule,KCNQ2 inh,KCNQ2 inh baseline
CN(C)c1ccc(S(=O)(=O)N(C)C)cc1NC(=O)Cc1cccc2ccccc12,-7.5*,0.88*
Oc1ccc2ccccc2c1C=Nc1ccccc1Br,i,1.3
CCCN(CC(=O)Nc1ccccc1C)C(=O)c1ccc(-c2ccccc2)cc1,i,2
Cc1nn(Cc2noc(C(=O)NCCCn3ccnc3)n2)c(C)c1Br,i,2.5
COc1ccc2c(c1)CCCN2S(=O)(=O)c1ccc(Cl)cc1,i,-0.46
O=[N+]([O-])c1cc(-c2csc(NCCc3nc4cc(Cl)c(Cl)cc4n3CCCO)n2)ccc1Cl,i,0.42
COc1ccc(OC)c(C(=O)CSc2nc3c(c(=O)n(C)c(=O)n3C)n2C(C)C)c1,i,-1.5
CCN(Cc1cc(=O)n2cc(Cl)c(C)c(Cl)c2n1)Cc1nc2ccccc2c(=O)[nH]1,i,-1.9
CCOC(=O)c1c(C=O)c(C)n(Cc2ccccc2)c1C,i,-1
O=C(CSc1ccc(-c2ccco2)nn1)NCc1ccc(Cl)cc1,i,-0.04
COc1cc(-c2ccc(NC(C)=O)c(OC)c2)ccc1NC(C)=O,i,0.72
CS(=O)(=O)c1ccc(NC(=O)CCCc2nc3ccccc3c(=O)[nH]2)cc1,i,0.27

Further compounds:
molecule,KCNQ2 inh,KCNQ2 inh baseline
O=C(NCCCO)/C(=C\c1ccco1)NC(=O)c1ccco1,i,1.8
Cc1cccc(NC(=O)CCC(=O)N/N=C/c2cc([N+](=O)[O-])ccc2O)c1,i,0.64
Cc1nnc(NC(=O)C2CCCO2)s1 (stereo unspecified),i,0.86
COc1ccc(S(=O)(=O)Cc2ccc(C(=O)NCCCN3CCc4ccccc4C3)o2)cc1,i,-3.8
O=C(CSCc1ccc(Br)cc1)NCc1ccccn1,i,0.32
CCOc1ccccc1NC(=O)COc1ccc2c(c1)OCO2,i,1.2
Cc1ccc(NCCC(=O)c2cccc([N+](=O)[O-])c2)c(C)c1,i,-2.6
Cc1cc(N2CCN(Cc3cn(C)nc3-c3cccc(Cl)c3)CC2)cc(C)n1,i,0.77

Part of the list above in order of length of the SMILES, highest first:
molecule,KCNQ2 inh,KCNQ2 inh baseline
Cc1cccc(NC(=O)CCC(=O)N/N=C/c2cc([N+](=O)[O-])ccc2O)c1,i,0.64
Cc1cc(N2CCN(Cc3cn(C)nc3-c3cccc(Cl)c3)CC2)cc(C)n1,i,0.77
O=C(CSCc1ccc(Br)cc1)NCc1ccccn1,i,0.32

Next records:
molecule,KCNQ2 inh,KCNQ2 inh baseline
CCOc1ccccc1NC(=S)NC1CCCCC1,i,-1.2
Cc1cccc(OC(C)C(=O)N2CCCc3ccccc32)c1 (stereo unspecified),i,0.21
COC(=O)c1c(N2C(=O)[C@H]3[C@@H](C2=O)[C@]2(C(=O)Nc4ccccc42)N2CCC[C@@H]32)sc(C)c1C,i,0.6
CC(=O)c1ccc(OCCCC(=O)NCC(c2ccco2)N(C)C)cc1 (stereo unspecified),i,2.2
Nc1c(C(=O)NCc2ccco2)nnn1-c1ccccc1,i,-0.01
O=C(OCc1ccc([N+](=O)[O-])cc1)C1CC(=O)N(Cc2ccccc2Cl)C1 (stereo unspecified),i,-2.5
O=C(Cn1c(=O)oc2ccccc21)Nc1ccc(F)c(F)c1,i,0.17
CCN1C(=O)/C(=C\N(C)C)S/C1=N\S(=O)(=O)c1ccc(C)cc1,i,-0.41

The results go on:
molecule,KCNQ2 inh,KCNQ2 inh baseline
COc1ccc(C(=O)N(C)Cc2ccccc2)cc1Br,i,-0.46
COc1ccc(OC)c(NC(=S)NCCSc2ccc(C)cc2)c1,i,-0.81
FC(F)(F)c1cc(-c2ccco2)nc(NCc2ccc(Cl)cc2)n1,i,2.6
O=C(OCC(=O)N1CCCc2ccccc21)c1cccc(C(F)(F)F)c1,i,-0.02
Cc1ccc(C2CN(c3ccccc3)CC2C(=O)c2ccc(F)cc2)cc1 (stereo unspecified),i,-0.72
CCOc1ccc(CCNC(=O)C2CCCN(S(=O)(=O)N3CC(C)CC(C)C3)C2)cc1OCC (stereo unspecified),i,-1.7
COc1ccccc1NC(=O)CN1CCN(C2c3ccccc3-c3ccccc32)CC1,i,1.1
COCCn1c(=O)[nH]c2cc(C(=O)NCCN3CCN(c4ccccc4)CC3)ccc2c1=O,i,0.24

Following part.
molecule,KCNQ2 inh,KCNQ2 inh baseline
CC(C)NC(=O)c1cc(-c2ccco2)nn1-c1ccc(Cl)cc1,i,-1.1
CC1CCCC(C)N1C(=O)CSc1nnnn1C1CCCC1 (stereo unspecified),i,-0.2
O=S(=O)(c1ccc(F)cc1)c1nc(-c2ccc(F)cc2)oc1NCCN1CCOCC1,i,-0.6
O=C(COC(=O)Cc1ccccc1F)Nc1ccc(F)cc1F,i,0.26
Cc1ccc(NC(=O)CSc2nc3ccccc3c3nc(CCn4cncc4C)nn23)c(C)c1,i,1.6
CCN(CC)c1ccc(-c2nc3cnccc3n2C)cc1,i,1.1
COc1ccc(-c2csc(NC(=O)C3CCCCN3S(=O)(=O)c3ccccc3)n2)cc1 (stereo unspecified),i,1.8
COCCCN1C(=O)N(c2ccc(F)cc2)C(=O)C1CC(=O)Nc1ccccc1 (stereo unspecified),i,0.54

Later entries
molecule,KCNQ2 inh,KCNQ2 inh baseline
COc1ccc(Cl)cc1C(=O)NCCCn1ccnc1,i,3.9
Cc1ccc(Cl)cc1N1CCN(Cc2nnnn2Cc2ccco2)CC1,i,-1.5
Cc1onc(-c2ccccc2)c1C(=O)Nc1nnc(CC(C)(C)C)s1,i,-0.98
CCOC(=O)N1CCN(C(=S)NC(=O)c2c(-c3c(Cl)cccc3Cl)noc2C)CC1,i,-0.18
Cc1ccc(OCC(=O)N(c2ccccn2)C2CCCCC2)c(C)c1,-6.4*,1.4*
COC(=O)c1c([N+](=O)[O-])c(OC)c(OC)c(OC)c1[N+](=O)[O-],i,-0.99
Cc1nnc(NC(=O)CN2CCN(Cc3ccccc3Cl)CC2)s1,i,0.57
c1ccc(-c2csc3nnc(SCc4ccc5c(c4)OCO5)n23)cc1,i,-0.93

Carrying on.
molecule,KCNQ2 inh,KCNQ2 inh baseline
CCOc1ccc2nc(NC(=O)C(NS(=O)(=O)c3cccc4nsnc34)C(C)C)sc2c1 (stereo unspecified),i,0.2
COc1ccc(C(=O)OCn2nnc3ccccc3c2=O)cc1,i,-1.3
Cc1ccccc1NC(=O)Cn1c(=O)oc2ccccc21,i,0.13
COc1ccc(OC)c(/C=N/n2c(C)nc3ccccc3c2=O)c1,i,2.7
O=C(c1ccc(Cl)c([N+](=O)[O-])c1)N(c1ccccn1)c1ccccn1,i,0.58
C=CCSc1nnc2n(-c3ccccc3OC)c(=O)c3c4c(sc3n12)CCC4,i,2.3
O=C(N/N=C/c1coc2ccccc2c1=O)c1ccccc1Br,i,-2.4
Cc1nc(N2CCOCC2)c2cc(-c3ccccc3)sc2n1,i,-0.43

Continued.
molecule,KCNQ2 inh,KCNQ2 inh baseline
Cc1ccc(Cn2c(=O)sc3ccccc3c2=O)cc1,i,1.7
Cc1nn(C)c(C)c1NC(=O)C12CC3CC(CC(C3)C1)C2,i,-0.47
COc1ccc(-c2cc(C3CC3)nc3sc(C#N)c(N)c23)cc1,i,0.81
N=c1n(CC(=O)c2ccc([N+](=O)[O-])cc2)c2ccccc2n1Cc1ccccc1,i,1.2
CN=C(Nc1cccnc1)c1cccc(C(F)(F)F)c1,i,1.4
O=C(OCC(=O)N(C1CCCCC1)C1CCCCC1)c1ccccc1O,-7.3*,-2.2*
C=CCn1c(=O)c(C(=O)Nc2ccccc2C)c(O)c2ccccc21,-6.1*,-1.4*
S=C(NCCc1ccccc1)N1CCn2cccc2C1c1ccncc1 (stereo unspecified),i,-0.7

Next records
molecule,KCNQ2 inh,KCNQ2 inh baseline
FC(F)(F)c1ccc(CSc2nccn2-c2ccccc2)cc1,i,1.4
COc1ccc(CNS(=O)(=O)c2csc(C(N)=O)c2)cc1OC,i,-0.13
Cc1cc(C)n(Cc2ccc(C(=O)O)o2)n1,i,-0.32
CCc1ccc(/C=C2\Oc3cc(OS(C)(=O)=O)ccc3C2=O)cc1,i,-1.9
CC(=O)c1c(C)cc(C)c(CSc2nnc(-c3ccco3)o2)c1C,i,-0.29
Oc1ccc(Nc2nc3ccccc3nc2Nc2ccc(O)cc2)cc1,i,-1
Cc1ccc2c(c1)N(CCC(=O)NCc1ccco1)C(=O)CO2,i,-0.67
Cc1ccc(NC(=O)c2ccc(F)cc2)nc1,i,0.03

(listing goes on)
molecule,KCNQ2 inh,KCNQ2 inh baseline
CCN(CC(=O)NCC1CCCO1)S(=O)(=O)c1ccc(Cl)cc1 (stereo unspecified),i,1.1
Cc1ccc(-c2c[n+](CC(=O)c3cccs3)c3n2CCC3)cc1,i,-1.4
C=CCc1ccccc1OCC(=O)N/N=C/c1ccccc1OCC,i,0.61
COc1ccc(-n2cnnc2SCC(=O)Nc2cccc([N+](=O)[O-])c2)cc1,i,-0.45
Cc1nc(-c2nnc(SCC(=O)Nc3ccc(C(F)(F)F)cc3)n2C)cs1,i,0.6
Cc1ccc(OCC(=O)Nc2cc(S(=O)(=O)N3CCCCC3)ccc2N2CCN(C)CC2)c(C)c1,i,0.01
O=C(/C=C/c1cccc2ccccc12)NCCC1=CCCCC1,i,0.14
Cc1ccccc1N(C(=O)CNC(=O)c1ccco1)C(C(=O)NC1CCCC1)c1ccncc1 (stereo unspecified),i,-0.02

Continued.
molecule,KCNQ2 inh,KCNQ2 inh baseline
CC(C)c1ccc(/C=N/NC(=O)c2cccc(Cl)c2)cc1,i,-0.34
Cc1ccccc1N1C(=O)c2ccccc2N2C(=O)c3ccccc3C12 (stereo unspecified),i,0.25
COc1ccccc1CCNC(=O)CC1C(=O)NCCN1CCCc1ccccc1 (stereo unspecified),i,-0.17
O=C(CCn1c(=O)sc2ccccc21)NCCC1=CCCCC1,i,0.08
Cc1cccc(N2CCN(C(=O)CCC(=O)N3Cc4ccccc4Oc4ncccc43)CC2)c1C,i,-0.05
Cc1cccc(NC(=O)NNC(=O)c2cc3ccccc3cc2O)c1C,i,0.15
Nc1nc2ccc([N+](=O)[O-])cc2[nH]1,i,-0.17
CCOC(=O)C1CCN(C(=O)c2ccccc2NS(=O)(=O)c2ccc(C)cc2)CC1,i,-2.3

New compounds follow
molecule,KCNQ2 inh,KCNQ2 inh baseline
Cc1cccn2c(=O)c(C=O)c(N3CCN(c4ccc(F)cc4)CC3)nc12,i,0.38
COc1cccc(OCCOc2ccccc2[N+](=O)[O-])c1,i,1.4
COc1ccc(/C=N\NC(=S)SCN2C(=O)C3CCC(C)(C2=O)C3(C)C)cc1 (stereo unspecified),i,1.6
COc1cccc(/C=C/C(=O)NCc2ccc(S(N)(=O)=O)cc2)c1,i,-0.56
COc1ccc(C(=O)NC2CCCN(Cc3ccccc3F)C2)c(OC)c1OC (stereo unspecified),i,-0.06
CCOC(=O)C1=C(C(F)(F)F)Nc2ncnn2C1c1cccc(OC)c1OC (stereo unspecified),i,-0.01
COc1ccc(Cl)cc1S(=O)(=O)NCc1ccncc1,i,-0.5
CCOc1ccccc1-c1nc(CN2CCCN(C(=O)c3ccco3)CC2)c(C)o1,i,-0.7
COc1ccccc1NC(=O)Nc1nnc(CC(=O)Nc2ccccc2)s1,i,-0.09

Only part of the results is shown; count on the stated rates, not on these rows.
